# Assay outcomes (PubChem)
# SARS PLpro yeast: SARS-CoV PLP inhibition in yeast | Potency, µM (top dose mostly 32.9 µM), inactives show at the top dose activity, positive = growth rescue | hit rate 0.19% among 330,000 | S. cerevisiae expressing SARS-CoV PLpro, growth rescue; control for the full effect not named in the record; further: 0% is about no effect; nearly all actives have a fitted effect of over 55% in size; growth read by luminescence after 48 h
# Marburg entry inh: inhibitors of Marburg virus binding or cell entry | hit rate 1.8% among 300,000 | Potency, µM (titrated, usually from 37.8 µM), for the others: at the top dose activity change, negative = inhibition, actives largely listed as inhibitors | Marburg virus pseudotyped entry inhibition, cell reporter; control for the full effect not named in the record; about a third of the inactives were read at about 46 µM; active = well fitted inhibition curve with a large enough effect; inconclusive = small, poorly fitted or top-dose-only effect, or effect the other way; inactive = flat fitted curve, though single readings scatter; tested in HEK293 cells; about a fifth of its hits are not listed in these tables; further: on the % scale 0 is the no-effect control and ±100 the full control effect; luciferase read-out
# NS1 function inh: influenza NS1 inhibition. hit rate 0.4% among 270,000. Potency, µM (doses to about 46.1 µM), without a hit: top-dose activity, positive = more growth. S. cerevisiae slowed by influenza A NS1, growth recovery by OD600; further: actives are rising curves; nearly all actives have a fitted effect of over 50% in size
#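 Read-out: OD600 growth recovery of NS1-expressing budding yeast. Cells grown overnight at 30C in -URA glucose medium, washed, resuspended and diluted 1:100 in 2% galactose assay medium, pH 6.0. Same strain lacking NS1 served as positive control.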
# 2A StopGo: FMDV 2A StopGo reporter, luciferase signal; human cells with a luciferase reporter of 2A StopGo recoding; control for the full effect not named in the record; Potency, µM (highest dose often 57.9 µM), for the others: at the top dose signal change, negative = less light; hit rate 1.2% among 410,000; active = well fitted falling curve with a large enough effect; inconclusive = small, poorly fitted or top-dose-only effect; inactive = no such curve, though single readings can be large or run the other way; tested in HEK293T cells; further: on the % scale 0 is the no-effect control and ±100 the full control effect; nearly all actives have a fitted effect of over 45% in size; luciferase light after 4 h
# Lassa entry inh: Lassa virus entry inhibition; AID 540256; Potency, µM (top dose mostly 37.9 µM), for the others: at the highest dose activity change, negative = inhibition, most hits filed as inhibitors; Lassa virus pseudotype entry inhibition, cell reporter; control for the full effect not named in the record; hit rate 1.2% among 300,000; active means well fitted inhibition curve with a large enough effect; inconclusive means small, poorly fitted or top-dose-only effect, or effect the other way; inactive means flat fitted curve, though single readings scatter; tested in HEK293 cells; further: on the % scale 0 is the no-effect control and ±100 the full control effect; nearly all actives have a fitted effect of over 50% in size; luciferase read-out
# RE007 growth inh: less growth of the S. pombe RE007 Vpr strain; S. pombe RE007 Vpr strain, BacTiter-Glo ATP luminescence, 24 h; control for the full effect not named in the record; Potency, µM (titrated, usually from 92.2 µM), for the others: at the highest dose activity change, negative = less growth; hit rate 0.21% among 360,000; AID 651644; active = well fitted falling curve with a large enough effect; inconclusive = small, poorly fitted or top-dose-only effect; inactive = no such curve, though single readings can be large or run the other way;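 further: on the % scale 0 is the no-effect control and ±100 the full control effect; nearly all actives have a fitted effect of over 50% in size; the assay follows cell death caused by Vpr and the record does not say whether a fall means rescue or toxicity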
#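 Fission yeast strain RE007, carrying one chromosomally integrated HIV-1 vpr copy, was seeded at OD 0.01 in PMG+AL medium with 23 nL pinned compound. After 24 h at 30 °C and 99% humidity, viability was read by BacTiter-Glo luminescence.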
# Cruzain inh noDet: blocks cruzain activity in detergent-free assay | purified cruzain, Z-FR-AMC fluorescence, no detergent | Potency, µM, inactives show max response, negative = inhibition, hits mostly inhibitors | hit rate 2.3% among 200,000; active means well fitted curve in the direction sought with a large enough effect; inconclusive means small, poorly fitted or top-dose-only effect, or another doubt; inactive means no such curve, though single readings can be large; an effect the other way counts as inactive or inconclusive;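 further: plate controls were enzyme without inhibitor for no effect and buffer without enzyme for full effect; nearly all actives have a fitted effect of over 40% in size; top concentration of the series not given in the record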
# Target sequence (P25779 123-467 limits assumed): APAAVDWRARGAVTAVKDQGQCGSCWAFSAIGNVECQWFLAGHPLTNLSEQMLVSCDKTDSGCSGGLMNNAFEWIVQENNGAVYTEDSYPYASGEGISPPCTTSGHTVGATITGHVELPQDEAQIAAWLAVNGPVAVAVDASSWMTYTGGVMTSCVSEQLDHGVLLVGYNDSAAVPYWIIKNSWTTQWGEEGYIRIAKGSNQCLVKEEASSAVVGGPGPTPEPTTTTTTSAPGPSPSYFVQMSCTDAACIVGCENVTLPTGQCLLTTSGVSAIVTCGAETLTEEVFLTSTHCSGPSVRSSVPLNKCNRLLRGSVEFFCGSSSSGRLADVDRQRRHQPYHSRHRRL
#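 Purified cruzain at 1.5 nM, pre-incubated 15 min with compound at room temperature in 100 mM sodium acetate pH 5.5, 5 mM DTT, 0.00005% Triton X-100. Reaction started with 2 uM Z-FR-AMC; AMC fluorescence increase over 60 s gives rate.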
# Cruzain Triton: blocks cruzain activity in presence of Triton detergent | purified cruzain, Z-FR-AMC fluorescence, 0.01% Triton | P25779 | Potency, µM, inactives show max response, negative = inhibition, actives largely listed as inhibitors | hit rate 0.43% among 200,000 | AID 1478; active means well fitted curve in the direction sought with a large enough effect; inconclusive means small, poorly fitted or top-dose-only effect, or another doubt; inactive means no such curve, though single readings can be large; an effect the other way counts as inactive or inconclusive;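 further: plate controls were neutral wells for no effect and buffer without enzyme for full effect; nearly all actives have a fitted effect of over 40% in size; top concentration of the series not given in the record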
#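 Detergent-containing arm of a paired screen for aggregation-based inhibition: 0.01% Triton X-100 present. Cruzain at 1.5 nM cleaved 2 uM Z-FR-AMC at pH 5.5 with 5 mM DTT; AMC fluorescence gain over 60 s measured activity.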
# The depositor's hits bear a star; ? = inconclusive; nt = not tested or not shown; [ ] = remark or other dose. Unless noted, the call rests on the fitted dose curve; in most records, active means well fitted rising curve with a large enough effect; inconclusive means small, poorly fitted or top-dose-only effect; inactive means no such curve, though single readings can be large or run the other way. Potency means the concentration at half of the fitted maximal effect. Rows were taken by chance, and some 4.7% of all compounds hit somewhere here.
# Second line of a record: SARS PLpro yeast, Marburg entry inh, NS1 function inh, 2A StopGo, Lassa entry inh, RE007 growth inh, Cruzain inh noDet, Cruzain Triton
1. COc1ccc(NC2CCCN(C(=O)c3ccccc3N3CCOCC3)C2)cc1OC (stereo unspecified)
    -7%, -3%, -2%, 34%[activator], -5%, -12%, nt, nt
2. CC(Oc1ccc(Cl)cc1Cl)C(=O)Nc1cccc(O)c1 (stereo unspecified)
    -5%, 7%[46.1 µM], -53%, 21%, ?, -8%, nt, nt
3. O=C(Nc1ccc(Cl)c(Cl)c1)N(Cc1c[nH]c2ccccc12)C1CCCCC1
    nt, ?, nt, 59%[activator], ?, nt, -2%, -6.2%
4. O=S(=O)(c1ccccc1)N1CCN(c2ncccn2)CC1
    5%, -7%, 0%, 0%, -7%[14.3 µM], 9%, -1%, -2.9%
5. CCN(CC)CCN1C(=O)C(=O)/C(=C(/O)c2ccc(OC)c(OC)c2)C1c1ccccn1 (stereo unspecified)
    9%, 5%, 1%, 0%, 17%, 0%, -2%, -7.5%
6. CCCCn1c(N)c(N(CC(C)C)C(=O)c2cccc(-n3cnnn3)c2)c(=O)[nH]c1=O
    -1%, 11%, nt, 7%, 13%, -21%, nt, nt
7. O=C1[C@H]2[C@@H](c3ccc(F)cc3)N3C(=O)N(c4cccc(Br)c4)C(=O)[C@@]3(Cc3ccc(Cl)cc3)[C@H]2C(=O)N1C1CCCCC1
    2%, nt, 26%, -21%, nt, -15%, nt, nt
8. Cc1cccc(Cn2c(CN3CCC(C(=O)NCc4ccccc4Cl)CC3)cc3ccccc32)c1
    nt, nt, nt, -23%, ?, nt, ?, -11%
9. O=C(NCCC(=O)N1CCN(c2cccc(Cl)c2)CC1)c1ccc(Br)cc1
    -13%, ?, nt, -27%, ?, 11%, nt, nt
10. COc1ccc(Cn2cnc3sccc3c2=O)cc1
    12%, 7%, -56%, -1%, 3%, 2%, 8%, -0.8%
11. CCC(=O)N1CCc2cc(S(=O)(=O)N3CCN(c4ccccc4F)CC3)ccc21
    nt, -19%[46.1 µM], nt, -3%, 17%[46.1 µM], nt, -1%, -1.9%
12. CCc1ccccc1N/N=C(/C)c1c(O)cc(C)oc1=O
    -7%, 8%, 0%, 8%, -2%, 2%, nt, nt
13. COCCN(C(=O)COC(=O)c1ccccc1Nc1ccccc1)c1c(N)n(Cc2ccccc2)c(=O)[nH]c1=O
    -3%, ?, nt, -26%, ?, 13%, nt, nt
14. O=C(CSCc1ccc(Cl)cc1)N1CCCCC1
    4%, ?, -55%, 25%, 15%, -26%, 8%, 0.8%
15. COC(=O)COc1ccc(NC(=O)C2CCCO2)cc1 (stereo unspecified)
    -1%, 9%, -1%, 9%, 9%, -6%, -7%, 7.5%

# Reprinted from the part before: six compounds, followed by the next part.
# Second line of a record: SARS PLpro yeast, Marburg entry inh, NS1 function inh, 2A StopGo, Lassa entry inh, RE007 growth inh, Cruzain inh noDet, Cruzain Triton
10. COc1ccc(Cn2cnc3sccc3c2=O)cc1
    12%, 7%, -56%, -1%, 3%, 2%, 8%, -0.8%
11. CCC(=O)N1CCc2cc(S(=O)(=O)N3CCN(c4ccccc4F)CC3)ccc21
    nt, -19%[46.1 µM], nt, -3%, 17%[46.1 µM], nt, -1%, -1.9%
12. CCc1ccccc1N/N=C(/C)c1c(O)cc(C)oc1=O
    -7%, 8%, 0%, 8%, -2%, 2%, nt, nt
13. COCCN(C(=O)COC(=O)c1ccccc1Nc1ccccc1)c1c(N)n(Cc2ccccc2)c(=O)[nH]c1=O
    -3%, ?, nt, -26%, ?, 13%, nt, nt
14. O=C(CSCc1ccc(Cl)cc1)N1CCCCC1
    4%, ?, -55%, 25%, 15%, -26%, 8%, 0.8%
15. COC(=O)COc1ccc(NC(=O)C2CCCO2)cc1 (stereo unspecified)
    -1%, 9%, -1%, 9%, 9%, -6%, -7%, 7.5%
16. COCc1cc(CN2CCCC(C(=O)c3cccc(C(F)(F)F)c3)C2)ccc1OC (stereo unspecified)
    1%, nt, 4%, -18%, nt, -17%, nt, nt
17. O=C(c1cc(-c2ccc(Cl)cc2Cl)on1)N1CCCCCC1
    -5%, ?, -42%, ?, ?, 0%, nt, nt
18. Cc1ccc(-n2ncc(C(=O)N3CCN(Cc4ccccc4)CC3)c2C2CCN(C(=O)OC(C)(C)C)CC2)c(C)c1
    nt, nt, nt, ?, ?, nt, -1%, -0.4%
19. COC(=O)c1ccccc1NC(=O)NCc1ccc2c(c1)OCO2
    nt, ?, -4%, 0%, 4%, -2%, -9%, 1.4%
20. Cc1nn(Cc2ccc(Cl)cc2)c(C)c1NC(=O)CCCn1nc([N+](=O)[O-])c(Cl)c1C
    -2%, ?, 0%, ?, ?, -12%, ?, -3.5%
21. CCOC(=O)N1CCN(C(=O)c2cc3cc(F)ccc3[nH]2)CC1
    -1%, ?, -2%, 15%, -12%, -12%, nt, nt
22. CC1Oc2ccccc2N(CC(=O)c2cccc(Cl)c2)C1=O (stereo unspecified)
    -1%, nt, -9%, -19%, nt, 5%, -10%, -6.4%
23. CC(C)CN1CCN(Cc2cnc(-c3ccc(Cl)cc3)nc2)CC1CCO (stereo unspecified)
    0%, nt, -3%, 11%, nt, 3%, nt, nt
24. CC(NC(=O)c1cc2cc([N+](=O)[O-])ccc2oc1=O)C1CCCO1 (stereo unspecified)
    -1%, ?, -2%, -12%, 4%, 3%, nt, nt
25. Cc1nc2ccccc2n1CC(=O)c1ccccc1
    -2%, nt, 10%, -11%, nt, -1%, nt, nt
26. CCN(CC1CCCN(CCc2cccc(F)c2)C1)C(=O)c1cc2ccccc2o1 (stereo unspecified)
    1%, ?, 1%, 13%, ?, -13%, nt, nt
27. CN(C[C@H](Cc1ccccc1)N(C[C@H](Cc1ccccc1)N(CC1(c2ccccc2)CC1)N=O)N=O)N=O
    1%, nt, 8%, 7%, nt, 8%, nt, nt
28. Cc1c(NC(=S)NC(C)(C)C)c(=O)n(-c2ccccc2)n1C
    0%, -24%[46.1 µM], nt, 16%, 2%, -18%, nt, nt
29. COc1cc(OC)c2c(-c3cccc(-c4ccc(C#N)cc4)c3)cc(=O)oc2c1
    -8%, nt, nt, 0%, nt, 4%, ?, 0.3%
30. C/C(=N\NC(=O)c1cccc(N/N=C(\C)c2ccncc2)c1)c1ccncc1
    1%, ?, nt, -12%, 20%, -6%, nt, nt

# Next section:
no.	SMILES	SARS PLpro yeast	Marburg entry inh	NS1 function inh	2A StopGo	Lassa entry inh	RE007 growth inh	Cruzain inh noDet	Cruzain Triton
31	COc1ccc(Br)cc1CNC(=O)Cc1c(C(=O)O)[nH]c2ccc(Cl)cc12	1%	?	nt	-14%	18%	-10%	nt	nt
32	COC(=O)c1ccc(N=C2S/C(=C\c3cc(C)n(-c4cccnc4)c3C)C(=O)N2C)cc1	4%	?	14%	?	?	2%	?	-0.8%
33	CCNCc1nc2cc(OC)c(OC)cc2c(=O)[nH]1	6%	9%	-48%	11%	7%	16%	-4%	1.5%
34	Oc1cc2ccccc2nc1-c1ccccc1Cl	-4%	?	-5%	-5%	?	-4%	nt	nt
35	Cc1ccnc(NC(=O)c2cccc(NC(=O)Cc3ccccc3)c2)c1	0%	?	-2%	20%	-1%	?	nt	nt
36	Cc1ccc2[nH]c(C(=O)O)c(-c3ccccc3)c2c1	5%	21%[46.1 µM]	-61%	7%	0%	5%	-4%	-12%
37	Cc1cc(NC(=O)CCC(=O)N(CC(=O)NC2CCCC2)c2ccc(C(C)C)cc2)no1	1%	?	-6%	-5%	?	1%	nt	nt
38	C=CCn1c(O)c(C(C)=Nc2ccc(C(=O)OCC)cc2)c(=O)[nH]c1=O	-1%	-28%	-85%	-23%	10%	0%	-3%	3.5%
39	CCN1C(=O)c2cccc3c(S(=O)(=O)Nc4nc(C)cs4)ccc1c23	-6%	-6%	-17%	80%[activator]	-5%	-10%	-7%	-2.4%
40	COc1cccc(CNC(=O)CCS(=O)(=O)c2ccc3c(c2)NC(=O)CO3)c1	5%	8%[46.1 µM]	-1%	9%	14%[46.1 µM]	-17%	nt	nt

# The list goes on:
no.	SMILES	SARS PLpro yeast	Marburg entry inh	NS1 function inh	2A StopGo	Lassa entry inh	RE007 growth inh	Cruzain inh noDet	Cruzain Triton
41	CCC1Sc2ccc(S(=O)(=O)CCC(=O)NCc3cccs3)cc2NC1=O (stereo unspecified)	0%	nt	-3%	?	nt	0%	nt	nt
42	CN(C)S(=O)(=O)c1cccc(NC(=O)c2c[nH]c3ccccc23)c1	1%	?	8%	5%	?	13%	nt	nt
43	CSc1cccc(CN2CCN(Cc3ccccc3)C(CCO)C2)c1 (stereo unspecified)	0%	nt	-3%	-3%	nt	12%	nt	nt
44	COc1ccc(-c2nc(N=Nc3ccc(O)cc3)n[nH]2)cc1	-7%	3%	0%	58%[activator]	-2%	0%	-19%	-10%
45	CC(C)(C)OC(=O)CN1C(=O)C(Sc2n[nH]c(-c3ccccc3)n2)CCc2ccccc21 (stereo unspecified)	-17%	8%	18%	-9%	?	4%	-1%	5.1%
46	COCCn1nnnc1C(c1ccccc1Cl)N1CCN(c2ccccc2OC)CC1 (stereo unspecified)	-1%	-6%	-18%	-15%	6%	-17%	7%	-3.8%
47	COc1ccccc1NC(=O)c1ccc(NC(=O)C2CC2C)cc1 (stereo unspecified)	-1%	-10%	nt	8%	-3%	8%	nt	nt
48	CCN(CC)S(=O)(=O)c1ccc(N/N=C(\C)c2ccc(OC)cc2O)nc1	10%	nt	-40%	-21%	nt	19%	nt	nt
49	O=C1c2cc(Cl)ccc2OC2(CCNCC2)C12CC(c1ccc(Cl)cc1)=NO2 (stereo unspecified)	1%	nt	0%	-9%	nt	4%	nt	nt
